Bioassay records from PubChem.
Menin-MLL FL inh = inhibitors of human menin-MLL interaction, wild-type MLL peptide. Fluorescence polarization, fluorescein-MLL peptide displacement from menin. FP activity change, % at 61.4 µM. 290,000 tested, under 10 active. AID 1766; inconclusive = falling polarisation curve, or a change in total fluorescence; inactive = total fluorescence flat and polarisation flat or rising; no compound was filed as active; the % refers to the polarisation; negative = inhibition;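 also: % of control where 0% means no effect; inhibitors lower the polarisation; unlabelled MLL peptide was the positive control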
ClpP mod = qHTS Assay for Activators of ClpP. purified B. subtilis ClpP, FRET peptide cleavage, 20 min. Potency, µM (highest dose often 57.5 µM), without a hit: at the top dose activity change, negative = active. hit rate 1.9% among 340,000. AID 651965, 2013; active = well fitted falling curve with a large enough effect; inconclusive = small, poorly fitted or top-dose-only effect; inactive = no such curve, though single readings can be large or run the other way; also: potency is read from the fitted curve at half-maximal effect; the source files actives as falling curves though it sought activators and does not explain the sign; nearly all actives have a fitted effect of over 65% in size; many hits overshoot -100%
Target sequence (P80244 whole entry, looked up): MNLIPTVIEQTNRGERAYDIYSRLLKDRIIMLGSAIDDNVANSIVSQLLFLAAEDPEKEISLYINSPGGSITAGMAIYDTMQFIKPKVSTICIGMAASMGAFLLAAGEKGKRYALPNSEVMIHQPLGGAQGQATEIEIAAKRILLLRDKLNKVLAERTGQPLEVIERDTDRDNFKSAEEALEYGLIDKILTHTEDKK
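Buffer: 100 mM Tris/HCl pH8, 100 mM KCl, 0.05% low protease BSA, 2.5% glycerol, 0.01% Tween-20. ClpP 10 microg/mL final; 20 min RT; delta FRET normalized to ADEP and DMSO controls.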
TRPML1 agonist = human mucolipin-1 channel agonism | TRPML1-expressing cells, Ca2+ dye fluorescence, FDSS; host cell line not named in the record; reference of the full effect not given here | hit rate 0.12% among 410,000 | activation, % (concentration not given with the values) | AID 624414 | Q9GZU1; in the data active = activation above about 50%; inconclusive = about 30% to 50%; inactive = below about 30%; also: 0% is about no effect; the text of the record puts the active cut at 80%
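TRPML1-DL cells, Tet-induced overnight (~16 h, 37 degrees C), loaded 45-90 min at room temperature with Ca8 no-wash calcium dye plus quencher. FDSS fluorescence: 10 s baseline, compound pin-transfer, 110 s agonist read, then EC80 54-4 (4uM final) and 110 s antagonist read.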
TRPML1 blocker = human mucolipin-1 channel inhibition. TRPML1-inducible cells, Ca2+ dye fluorescence, FDSS; stronger effect = lower value; inhibition of EC80 agonist-evoked calcium signal. AID 624415. activity change, negative = inhibition, % (concentration not given with the values). Q9GZU1. hit rate 0.02% among 390,000; in the data active means activity change below about -50%; inconclusive means about -30% to -50%; inactive means above about -30%;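 also: stimulus is agonist 54-4 at its EC80 concentration; % is scaled to controls: 0 for no effect and ±100 for the full control effect; compound concentration not given in the record; the text of the record puts the active cut at -80%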
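TRPML1-DL cells, Tet-induced overnight (~16 h, 37 °C) at 1,500 cells/well, were loaded with Ca8 no-wash dye plus quencher for 45-90 min at room temperature. Compounds were pinned during FDSS kinetic reading; agonist 54-4 at EC80 (4 uM final) then added.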
Sfp PPTase inh = blocks B. subtilis Sfp PPTase activity. Q9F4F7. Potency, µM, without a hit: max response, negative = inhibition, hits mostly inhibitors. hit rate 3.5% among 310,000. AID 1490. Biochemical Sfp PPTase activity, qHTS; active = well fitted inhibition curve with a large enough effect; inconclusive = small, poorly fitted or top-dose-only effect, or another doubt; inactive = no such curve, though single readings can be large or run the other way;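 also: the enzyme is Sfp with the accession as filed and its product quenches rhodamine fluorescence; potency is read from the fitted curve at half-maximal effect; 0% = enzyme reaction without inhibitor and -100% = no enzyme wells; top concentration of the series not given in the record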
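After 15 min at room temperature with compound, 15 nM Sfp received 5 uM rhodamine-CoA plus 12.5 uM BHQ-2-ybbR (50 mM Hepes pH 7.6, 10 mM MgCl2). Rate came from the fluorescence difference over 30 min, ex 525/em 598 nm.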
TRPV1 potentiator = enhances activation of the human vanilloid receptor TRPV1. Q8NER1. TRPV1-expressing cells, Fluo-8 calcium influx, capsaicin EC20 potentiation; host cell line not named in the record; control for the full effect not named in the record. potentiation, % at 8.33 µM. hit rate 0.02% among 320,000. AID 540277; active means potentiation above 80%; inconclusive means 30% to 80%; inactive means below 30%; also: 0% is about no effect
Target sequence (Q8NER1 whole entry, looked up): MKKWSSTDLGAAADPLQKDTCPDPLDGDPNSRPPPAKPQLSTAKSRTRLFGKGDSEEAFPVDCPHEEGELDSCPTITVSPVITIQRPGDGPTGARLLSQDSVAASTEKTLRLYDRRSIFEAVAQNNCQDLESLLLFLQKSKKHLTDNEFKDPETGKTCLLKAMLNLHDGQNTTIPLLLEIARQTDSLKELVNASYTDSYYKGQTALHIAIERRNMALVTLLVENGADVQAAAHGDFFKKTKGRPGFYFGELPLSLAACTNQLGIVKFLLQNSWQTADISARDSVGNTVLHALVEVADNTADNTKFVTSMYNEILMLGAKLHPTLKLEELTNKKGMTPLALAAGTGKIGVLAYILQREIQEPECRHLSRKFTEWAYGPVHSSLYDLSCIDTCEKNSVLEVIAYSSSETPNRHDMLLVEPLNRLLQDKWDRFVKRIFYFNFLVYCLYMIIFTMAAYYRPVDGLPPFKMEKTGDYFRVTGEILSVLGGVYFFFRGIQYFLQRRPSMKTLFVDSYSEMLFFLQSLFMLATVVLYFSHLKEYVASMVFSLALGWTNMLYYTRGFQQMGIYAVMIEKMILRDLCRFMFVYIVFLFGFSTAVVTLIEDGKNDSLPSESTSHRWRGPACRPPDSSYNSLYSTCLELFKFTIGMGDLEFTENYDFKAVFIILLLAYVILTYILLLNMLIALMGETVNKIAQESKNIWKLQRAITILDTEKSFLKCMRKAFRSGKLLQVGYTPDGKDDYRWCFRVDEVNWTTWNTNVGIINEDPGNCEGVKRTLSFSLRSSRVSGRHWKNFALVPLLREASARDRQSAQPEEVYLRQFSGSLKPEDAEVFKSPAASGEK
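TRPV1-expressing cells were cultured overnight at 35.5C and loaded with Fluo-8 calcium dye for 40 to 90 min at room temperature. After a 10 s baseline, compound was added and calcium influx was read kinetically for 3 min (ex 480/em 520 nm).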
PINK1 modulator = changes PINK1 expression; PINK1 immunofluorescence, high-content cytometry, 24 h; Potency, µM (highest dose often 76.6 µM), inactives show at the top dose activation (PINK1 increase), actives largely listed as activators; hit rate 0.2% among 410,000; AID 624263; active = well fitted activation curve with a large enough effect; inconclusive = small, poorly fitted or top-dose-only effect; inactive = flat fitted curve, though single readings scatter; cell line not stated here;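 also: potency is read from the fitted curve at half-maximal effect; % of control where 0% means no effect; nearly all actives have a fitted effect of over 65% in size; a mitochondrial uncoupler was the plate control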
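Fluorescence from anti-PINK1 antibody, together with nuclear and cell stains, was scanned on a laser-scanning cytometer. Before staining, stable-line cells were incubated 24 hours with compounds at 5 concentrations; primary antibody 12 h at 10 degrees C.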
An asterisk follows results filed as active; ? = inconclusive; · = not tested or not shown; & = joins results of further samples; [ ] = dose if it differs, or a comment.

Values run as follows: Menin-MLL FL inh, ClpP mod, TRPML1 agonist, TRPML1 blocker, Sfp PPTase inh, TRPV1 potentiator, PINK1 modulator
CCOC(CNC(=O)C1CCN(S(=O)(=O)c2ccc3nc4c(c(C(=O)O)c3c2)CC(C)CC4)CC1)OCC (centres undefined)
    3.8, -2.7%, -0.2, 0.6, 9.6%, -5.9, 0.1%
CC1CCC(NC(=O)c2ccc3c(c2)N(Cc2cccc(F)c2)C(=O)c2ccccc2S3)CC1 (centres undefined)
    ·, -3.9%, 2.8, 73.5, ·, ·, 3.6%
CC1(C)CC2(OC2c2ccccc2)C(=O)c2ccccc21 (centres undefined)
    ·, -0.3%, 1.5, 77.8, ·, ·, 0.4%
Cc1ccccc1-c1noc(-c2nnn(-c3ccccc3C)c2N)n1
    ·, -4.4%, -0.7, -14.5, ·, ·, 0.2%
O=c1c2sc3nc(N4CCOCC4)c4c(c3c2nnn1Cc1ccccc1)CCCC4
    -2.9, -2.8%, -0.1, 26.3, 7.3%, -1.1, 3.9%
O=C(c1ccc(CS(=O)(=O)c2ccccc2)o1)N1CCN(c2ccccc2)CC1
    -2.9, ·, -0.5, 12.7, 17.3%, 8.8, 9.6%
CCOC(=O)/C=c1\s/c(=C\c2ccc(C)cc2)c(=O)n1CC(=O)NCc1ccco1
    11.0, 0.7%, 0.6, -6.7, -9.9%, -3.3, 10.9%
COc1ccc(Cc2nnc(SCC(=O)Nc3cc(Cl)ccc3OC)[nH]c2=O)cc1
    ·, -0.8%, 1.1, -6.8, ·, 24.7, -0.6%
Cc1c(CC(=O)NCC(=O)O)c(=O)oc2cc3oc4c(c3cc12)CCCC4
    -20.2, 0.5%, -1.2, 9.0, 2.5%, 10.8, 2.5%
CCOC(=O)[C@]12CCC=C1N(Cc1ccco1)C(=O)[C@H](CC(=O)N1CCOCC1)C2
    ·, -2.1%, 0.0, ·, ·, ·, -0.2%
Cc1ccc(N2CCN(CCCN3C(=O)C4CCCN4C3=O)CC2)cc1 (centres undefined)
    3.8, 1.8%, -0.4, -15.6, -27.7%, 12.7, 2.0%
Cc1ccc(C(=O)NC(=S)Nc2ccc(S(=O)(=O)N(C)c3ccccc3)cc2)cc1
    4.8, -0.4%, 1.3, 32.3, 6.4%, -21.6, 7.9%
O=C(NCc1ccccn1)c1c(O)c2cccc3c2n(c1=O)CC3
    -0.9, -19.6%, -0.9, -9.9, 6.4%, 8.6, -0.8%
CCOc1ccc(N(C(=O)c2cnccn2)C(C(=O)NC2CCCCC2)c2ccc(O)cc2)cc1 (centres undefined)
    -1.1, ·, 0.3, 4.8, 6.2%, -1.5, -0.7%
CCOC(=O)C1CCN(C(=O)C2CCN(S(=O)(=O)c3ccc4ccccc4c3)CC2)CC1
    2.1, 1.7%, 2.0, -13.4, 8.3%, 1.5, -0.6%
CCCn1c(SCC(=O)Nc2cccc(F)c2)nc(O)cc1=O
    ·, -1.4%, 2.6, 3.4, ·, ?, 0.2%
COc1ccc(-c2noc(-c3ccc(N4CCCCC4C)c([N+](=O)[O-])c3)n2)cc1OC (centres undefined)
    ·, 0.2%, -0.8, -2.7, ·, ·, -0.5%
c1cnc(-c2nnc3n2CCCCC3)cn1
    3.5, 0.4%, -0.6, 1.8, 20.5%, -18.5, -1.7%[38.3 µM]
COc1cccc(NCc2ccc([N+](=O)[O-])s2)c1
    ·, 0.1%, 1.6, -27.7, -24.1%, 0.3, 1.9%
Cc1cc(Cl)c2oc(C(=O)N(C)C3CCOC3)c(C)c2c1 (centres undefined)
    1.6, -2.9%, 0.8, -0.3, -2.0%, -15.9, -1.4%
O=C1CCCc2oc3ccc(NS(=O)(=O)c4cccc5cccnc45)cc3c21
    -1.6, ·, 1.7, -8.7, 25.8%, 5.4, -0.6%
COc1ccc(N2CCN(S(=O)(=O)c3ccc(-c4cnc(C5CC5)o4)cc3)CC2)cc1
    ·, -0.4%&4.2%, 0.6&-0.8, -11.2&7.7, 7.3%, 23.8, 4.8%&2.4%
O=C1Nc2c(Br)cc(Br)c3cccc1c23
    -0.6, ·, 0.7, 0.1, 1.7%, -9.9, -0.8%
OC(COc1ccc(Br)cc1)CN1CCCC1 (centres undefined)
    4.6, -0.4%, -0.5, -2.1, 3.0%, -0.6, -1.3%
COc1cc(/C=C(\C#N)C(N)=O)ccc1OCc1c(C)no[n+]1[O-]
    2.1, -3.7%, 1.0, 3.0, 8.9%, -14.0, 1.2%
COc1cc(/C=N/Nc2nc(N3CCCCC3)nc(N3CCCCC3)n2)ccc1OC(=O)c1ccco1
    -0.1, ·, ·, ·, 21.2%, -5.2, ·
CCOC(=O)[C@H]1[C@H]2COc3ccc(C)cc3[C@@H]2N2C(=O)CN(Cc3ccccc3)C(=O)[C@@]12C
    ·, 2.2%, -0.5, -13.8, ·, -20.7, 0.9%
COc1ccccc1C(=O)NCCC(=O)N1CCCC(C)C1 (centres undefined)
    2.2, 1.8%, 0.0, -1.9, -0.9%, 3.3, 3.8%
Cc1ccccc1CSc1ncc(Cl)c(C(=O)NCc2ccccc2)n1
    ·, -9.6%, 2.0, 31.1, ·, ·, 2.3%
O=C(O)COCc1nc2ccccc2s1
    0.5, -1.6%, ·, ·, 25.1µM*, 5.0, -0.9%
O=c1cc(C(F)(F)F)nc(SCc2cccc3ccccc23)[nH]1
    2.3, 0.9%, 0.5, -4.2, 28.4%, -1.7, 1.7%
Cc1nc2c(C(=O)NCCC(C)C)c[nH]n2c(=O)c1Cc1ccccc1F
    -0.7, ?, 2.5, 37.1, 3.3%, 1.5, 7.2%[38.3 µM]
CCc1nnc(NC(=O)CSc2nnc(-c3ccoc3C)n2-c2cccc(C)c2)s1
    7.9, -1.6%, 6.4, 17.2, -18.2%, 4.1, 0.8%
COC(=O)c1cc2c(cc1NC(=O)CSCCc1ccccn1)OCO2
    -14.9, -6.6%, -1.5, 3.8, -5.8%, -24.2, 0.8%
Nc1nc2ccc(C(=O)Nc3ccccc3)cc2s1
    1.4, -3.3%, -1.0, 2.8, 4.0%, -8.7, -1.5%
C=CCn1c(=O)c2c(nc3n2CCCN3CCc2ccc(OC)c(OC)c2)n(C)c1=O
    4.5, ·, 0.3, 9.7, 15.0%, 4.4, 3.3%
Cc1ccc(C2CC(=O)C(C=NCCN3CCN(C(=S)Nc4ccccc4)CC3)=C(O)C2)cc1 (centres undefined)
    4.6, ·, -0.4, -20.2, 21.3%, -3.7, 0.9%
Cc1ccc(S(=O)(=O)NC(=O)NCc2ccc(Cl)cc2)cc1
    2.4, -0.2%, 0.7, -10.5, 6.7%, 2.9, 1.3%
CCCCCCCN1CCN=C1Nc1ccccc1
    ·, -2.5%, -0.5, -18.7, ·, -46.8, -0.7%
COc1cc(CN2CCCC(CCC(=O)NCc3ccc(C)o3)C2)cc2c1OCO2 (centres undefined)
    2.2, -2.5%, 0.4, 7.6, 0.9%, 7.2, -0.4%
CCOc1ccc2nc(N3CCCC(C(=O)NCc4ccccc4Cl)C3)sc2c1 (centres undefined)
    ·, 1.5%, 0.4, 6.3, ·, ·, 11.0%
CCCn1c(N)c(C(=O)CSc2nnc3ccccn23)c(=O)n(C)c1=O
    ·, 1.1%, -0.2, -0.1, ·, 19.1, 1.5%
CCCC(c1nnnn1C1CCCC1)N1CCN(C(=O)c2ccco2)CC1 (centres undefined)
    3.8, -1.2%, 0.8, 21.2, 4.8%, 0.6, 0.4%
CCOC(=O)C1CCN(c2ncnc3c2cnn3-c2ccccc2)CC1
    -0.4, -2.4%, -0.3, -1.7, 19.6%, -15.0, -2.2%[38.3 µM]
CS(=O)(=O)N1CCN(c2nc(-c3cccs3)nc3ccccc23)CC1
    ·, -7.4%, 0.0, ·, ·, ·, 0.9%
Cc1ccc(C)c(NC(=O)CN(C)C(=O)c2nn(C)c(=O)c3ccccc23)c1
    -5.9, ·, -0.6, -0.9, 17.3%, 2.1, 0.5%
Cc1ccccc1C(=O)OCC(=O)Nc1cccc(S(=O)(=O)NC2=NCCC2)c1
    ·, -1.8%, 1.4, 0.9, ·, ·, 1.8%
Cc1cc(C)c(NC(=O)CNC(=O)COC(=O)CNC(=O)c2ccc(Cl)cc2Cl)c(C)c1
    ·, 1.3%, 0.0, 13.7, ·, -3.1, 1.9%
COc1ccc(CNC(=O)COC(=O)CN2C(=O)C3CC=CCC3C2=O)cc1 (centres undefined)
    ·, ·, 3.9, -4.6, ·, ·, -1.2%
O=S(=O)(c1cccc(-c2nnc(-c3cccnc3)o2)c1)N1CCCCC1
    0.7, -1.4%, -0.8, 11.1, 12.0%, -1.1, 4.4%[38.3 µM]
COc1cccc2[nH]c(C(=O)NCCc3ccccc3)cc12
    4.5, 4.1%, 1.3, 2.0, -1.8%, ?, 1.2%
CCOCc1c(C(=O)N2CCN(CC(=O)Nc3ccc(F)cc3)CC2)oc2ccccc12
    ·, 0.5%, 1.7, 1.6, ·, -4.5, 0.5%
CCOc1ccccc1Nc1sc(C(=O)c2ccc(Cl)cc2)c(N)c1C(=O)NCCc1ccccc1
    ·, -0.7%, 0.4, -3.5, ·, ·, 0.3%
O=S(=O)(c1ccc(Cl)s1)N1CCN(C/C=C/c2ccccc2)CC1
    3.2, -1.2%, ?, -4.2, -26.7%, -18.8, -3.4%
CCCC(=O)C1=C(O)C(C(=O)OC)C(C)(C)CC1=NCCc1ccc(OC)c(OC)c1 (centres undefined)
    -1.4, ·, 0.0, -5.3, -8.3%, -6.0, -1.1%
CCCCn1c(N)c(N(CCC(C)C)C(=O)CC2CCCCC2)c(=O)[nH]c1=O
    ·, 2.4%, 0.3, -7.2, ·, 4.1, -2.2%
COC(=O)C1CCN(c2cc(Cl)nc(N)n2)CC1
    -1.2, ·, -1.0, 2.2, 17.6%, 9.6, -0.1%
COc1cccc(CN2CCNC(=O)C2CC(=O)N(C)C2CCOCC2)c1 (centres undefined)
    -5.0, -6.1%, 0.2, -13.5, -1.7%, -1.7, 1.4%
CCOc1ccccc1NC(=O)c1ccc(S(=O)(=O)N2CCOCC2)cc1
    0.2, 3.9%, -0.9, 6.5, 10.5%, -11.0, 0.2%
O=C(O)COc1ccc(/C=N/NC(=O)C2CCCN2S(=O)(=O)c2ccc(Cl)cc2)cc1 (centres undefined)
    0.7, 2.2%, -1.0, 9.6, 6.3%, 3.4, 1.3%
O=Cc1c[nH]c2ccc(S(=O)(=O)N3CCOCC3)cc12
    1.3, 1.3%, 0.0, 8.7, 1.1%, -15.3, 0.0%
